Bioassay records deposited in PubChem BioAssay by National Center for Advancing Translational Sciences (NCATS).
HPGD inh = HPGD (human) dehydrogenase inhibition | AID 894 | P15428 | actives 4.3% (n = 150,000) | Potency, µM, for the others: at the highest dose activity change, negative = inhibition, actives largely listed as inhibitors | purified HPGD, NADH fluorescence kinetic, PGE2 substrate; active = well fitted inhibition curve with a large enough effect (not every such curve was filed as active); inconclusive = small, poorly fitted or top-dose-only effect, or another doubt; inactive = no such curve, though single readings can be large or run the other way;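 also: top concentration of the series not given in the record; plate controls included wells without enzyme; inactives centre near -10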
Target sequence (P15428 whole entry, looked up): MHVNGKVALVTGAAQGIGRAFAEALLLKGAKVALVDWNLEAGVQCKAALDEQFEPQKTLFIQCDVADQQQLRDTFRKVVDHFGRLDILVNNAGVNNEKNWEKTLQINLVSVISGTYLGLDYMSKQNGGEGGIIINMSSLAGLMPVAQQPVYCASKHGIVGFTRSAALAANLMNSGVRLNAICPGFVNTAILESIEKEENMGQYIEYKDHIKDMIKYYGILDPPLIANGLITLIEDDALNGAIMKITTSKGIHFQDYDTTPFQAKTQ
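NADH formation kinetics: reaction with 30 uM PGE2 and 1 mM NAD+ (final), 20 nM enzyme, Tris-HCl pH 8 with Tween 20, after 15 min compound preincubation at room temperature. Fluorescence change, last versus first of five reads.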
The depositor's hits bear a star; u = inconclusive; & = joins results of further samples; [ ] = dose if it differs, or a comment. % is scaled to controls: 0 for no effect and ±100 for the full control effect; potency is read from the fitted curve at half-maximal effect. This is a subset. The share of hits here may be higher or lower than overall.

| canonical_smiles | HPGD inh |
| --- | --- |
| COc1ccc(OC)c(S(=O)(=O)N2CCC(C(=O)NCCc3ccccc3)CC2)c1 | -20% |
| COC(=O)c1c(-c2cccs2)csc1NC(=O)c1cccnc1 | u |
| CC1=NN(c2cccc(Cl)c2)C(=O)C12CC(C)=C(C)CS2 (stereo unspecified) | -24% |
| O=C(CCc1ccccc1)N1CCCN(C(=O)CCc2ccccc2)CC1 | -6% |
| COc1ccc(C(=O)Oc2ccc(C(C)=O)cc2)c(OC)c1 | -1% |
| c1ccc2sc(NC3=NCN(C4CCCCCC4)CN3)nc2c1 | -5% |
| Cc1cc(Cl)c(S(=O)(=O)NCC2CCCO2)cc1OCC(=O)NC1CCCCC1 (stereo unspecified) | -12% |
| Cc1ccc(S(=O)(=O)NC(C(=O)Oc2ccc3ccc(=O)oc3c2)c2ccccc2)cc1 (stereo unspecified) | 203%[activator] |
| CCNS(=O)(=O)c1ccc(C)cc1 | -12% |
| Cc1cc(Cl)ccc1NC(=O)CCCN1C(=O)CCC1=O | 1% |
| COc1cccc(CC(NC(C)=O)C(=O)NC2CCN(c3nc(C)cc(C)c3C#N)CC2)c1OC (stereo unspecified) | u |
| COc1ccccc1N1CCN(C(=O)c2cc3cc(Br)ccc3oc2=O)CC1 | -6% |
| COc1ccc(Cl)cc1NC(=O)COC(=O)CCNC(C)=O | -5% |
| CN1CCN(Cn2cc(/C=C/C(=O)c3ccccc3)c3ccccc32)CC1 | u |
| N#C/C(=C\c1cccs1)C(=O)NCc1cccnc1 | -10% |
| CCC1=C2CC[C@H]3C(=O)N(CC)C(=O)[C@H]3[C@H]2[C@@]2(Cc3ccccc3)C(=NCc3ccccc3)OC(=O)N2C1=O | -5% |
| COc1ccc(-n2c(=O)c(-c3cn(C)c4ccccc34)nc3cnc(OC)nc32)cc1 | -7% |
| Cc1ccc2c(c1)N(CC(=O)NCCc1c[nH]c3ccccc13)C(=O)CO2 | 3% |
| Cc1ccc(C(=O)C(C(=O)/C=C/c2ccccc2)=C2SCCCS2)cc1 | -15% |
| O=C(Cn1ccc([N+](=O)[O-])n1)NCc1cccs1 | -2% |
| CCNC(=S)NNC(=O)C(c1ccccc1)c1ccccc1 | -18% |
| COc1cc(/C=C(\C#N)C(N)=O)cc(CSc2nc3ccccc3s2)c1O | 40µM* |
| Cc1ccc(NC(=O)Cc2cn3ccsc3n2)nc1 | -3% |
| COc1ccc(NS(=O)(=O)c2cc(NC(=O)[C@@H](NC(=O)c3ccccc3)C(C)C)ccc2C)cc1 | u |
| O=C(CN1C(=O)c2ccccc2S1(=O)=O)NCCSCc1ccco1 | -3% |
| Cc1cccc(OCC(=O)N2CCOCC2)c1 | -9% |
| CCN(CC)c1ccc(-c2nn3c(-c4ccccc4OC)nnc3s2)cc1 | u |
| CC1(C)CC2CC(C)(CN2C(=O)c2cccs2)C1 (stereo unspecified) | -6% |
| O=CNc1ccccc1Oc1ccccc1 | -7% |
| COc1ccc(NC(=O)/C(=C/c2cccnc2)NC(=O)c2cccs2)cc1 | -13% |

Structural class, the entries above containing an aryl methoxy group
| canonical_smiles | HPGD inh |
| --- | --- |
| COc1ccc(OC)c(S(=O)(=O)N2CCC(C(=O)NCCc3ccccc3)CC2)c1 | -20% |
| COc1ccc(C(=O)Oc2ccc(C(C)=O)cc2)c(OC)c1 | -1% |
| COc1cccc(CC(NC(C)=O)C(=O)NC2CCN(c3nc(C)cc(C)c3C#N)CC2)c1OC (stereo unspecified) | u |
| COc1ccccc1N1CCN(C(=O)c2cc3cc(Br)ccc3oc2=O)CC1 | -6% |
| COc1ccc(Cl)cc1NC(=O)COC(=O)CCNC(C)=O | -5% |
| COc1ccc(-n2c(=O)c(-c3cn(C)c4ccccc34)nc3cnc(OC)nc32)cc1 | -7% |
| COc1cc(/C=C(\C#N)C(N)=O)cc(CSc2nc3ccccc3s2)c1O | 40µM* |
| COc1ccc(NS(=O)(=O)c2cc(NC(=O)[C@@H](NC(=O)c3ccccc3)C(C)C)ccc2C)cc1 | u |
| CCN(CC)c1ccc(-c2nn3c(-c4ccccc4OC)nnc3s2)cc1 | u |
| COc1ccc(NC(=O)/C(=C/c2cccnc2)NC(=O)c2cccs2)cc1 | -13% |

Going on with the list.
| canonical_smiles | HPGD inh |
| --- | --- |
| CCOC(=O)CSc1nnc(CCCCCN2C(=O)c3cccc4cccc(c34)C2=O)o1 | u |
| Cc1ccc(S(=O)(=O)N(CC(=O)Nc2cccc(N(C)S(C)(=O)=O)c2)c2ccc(Cl)c(Cl)c2)cc1 | -13% |
| O=C(CSc1ncnc2sc3c(c12)CCCC3)c1ccco1 | u |
| OCCN1CCN(c2ncnc3nc[nH]c23)CC1 | -6% |
| COc1ccc(S(=O)(=O)N(Cc2ccccc2)Cc2nc(-c3ccccc3)no2)cc1 | -19% |
| CCC(=O)NC(=S)Nc1ccc(S(=O)(=O)NC(C)C)cc1 | -7% |
| CN(C(=O)CCN1C(=O)c2ccccc2C1=O)C1CCCCC1 | -14% |
| COc1ccc(/C=C/C(=O)NC(=S)NCCc2ccc(OC)c(OC)c2)cc1 | -8% |
| CCC(=O)Nc1nnc(-c2ccc(OC)cc2)o1 | -5% |
| Cn1ncc(Br)c1C(=O)NC12CC3CC(CC(C3)C1)C2 | -2% |
| Cc1ccc(C(=O)Nn2cnc3scc(-c4cccs4)c3c2=O)c(O)c1 | -16% |
| COc1ccc(OC)c(NC(=O)c2cc(-c3ccc(C)cc3O)n[nH]2)c1 | -12% |
| O=C(Oc1ccc2c(c1)OCO2)c1cc2c(s1)CCC2 | 22µM* |
| Cc1cc([N+](=O)[O-])ccc1NC(=O)Cc1ccc(F)cc1 | -5% |
| COc1ccccc1NC(=O)C1=C(C)NC2=C(C(=O)CCC2)C1c1ccc(C)o1 (stereo unspecified) | -5% |
| CCCS(=O)(=O)N1CCC(C(=O)N2CCC(Cc3ccccc3)CC2)CC1 | -2% |
| COc1ccc(C(=O)Nc2ccc(S(=O)(=O)Nc3nccc(C)n3)cc2)cc1OC | -26% |
| N#CC1=C(N)NC(SCc2ccc(F)cc2)=C(C#N)C12CCCCC2 | -10% |
| Cc1cc(C)n(-c2c(F)c(F)c(COC(=O)c3ccccc3)c(F)c2F)n1 | -13% |
| CCCC/C=C/C(NC(=O)c1cccs1)c1ccccc1 (stereo unspecified) | -16% |
| Cc1ccc(-n2c(O)c(C=NC3CCS(=O)(=O)C3)c3ccccc3c2=O)cc1 (stereo unspecified) | -23% |
| CN1C(=O)c2ccccc2N(C)C1c1ccc2c(c1)OCO2 (stereo unspecified) | u |
| COc1ccc(-c2c(C)oc3ccc(C)cc23)cc1 | -5% |
| CC(Oc1ccccc1)C(=O)NNS(=O)(=O)c1ccc([N+](=O)[O-])cc1 (stereo unspecified) | -1% |
| CC(C)CC(OC(=O)c1ccco1)C(=O)NCC1CCCO1 (stereo unspecified) | -6% |
| CC(=O)N1[C@H](Cc2ccccc2)C=C[C@]1(C)C(=O)NCc1ccccn1 | -1%&-12% |
| Cc1ccc(/C=N/NC(=O)c2ccncc2)o1 | -26% |
| Cc1cc(Nc2ccc(Cl)cc2)n(-c2ccccc2)n1 | 7.9µM* |
| CCOc1ccccc1CN(CCc1ccc2c(c1)OCO2)Cc1ccccn1 | 5% |
| O=C(C[n+]1cccc(CNC(=O)c2ccc(OC(F)F)cc2)c1)Nc1ccc(SC(F)F)cc1 | -4% |
| CC1=C(C(=O)Nc2ccc([N+](=O)[O-])cc2)C(c2cccc(C(F)(F)F)c2)NC(=S)N1c1ccccc1 (stereo unspecified) | -18% |
| c1cc(-c2noc(CC3CCCCC3)n2)ccn1 | -10% |
| COCCCNC(=O)c1cccc(OC)c1OC | 7.1µM* |
| COc1ccc(-c2cn3c(C)c(C(=O)NCCN4CCOCC4)sc3n2)cc1 | -13% |
| Cn1nc(-c2ccccc2)c(C(=O)Nc2ccc(C(F)(F)F)cc2)c1Cl | -12% |
| CC(C)OC(=O)[C@@H]1CC[C@H](C)[C@@H](CCCCO)O1 | -7% |
| CN(C)Cc1cc(C(C)(C)C)cc(CNC2CCCCC2)c1O | -9% |
| O=C(O)c1ccc(C2SCC(=O)N2Cc2ccccc2)cc1 (stereo unspecified) | -7% |
| CC1=NN(c2ccccc2)C(=O)C1C(=O)c1ccccc1 (stereo unspecified) | -3% |
| COc1ccc(C(=O)Nc2ccccc2C(=O)N/N=C/c2ccc(O)c(OC)c2)cc1 | u |
| CC(C)OC(=O)C(C)Oc1ccc(C(=O)NCCc2ccccc2)cc1 (stereo unspecified) | -20% |
| Cc1ccc(-c2cc(C(=O)Nc3ccc(S(=O)(=O)Nc4ncccn4)cc3)c3ccccc3n2)cc1 | -7% |
| CCOC(=O)C12CNC(=O)C(C(=O)OCC)(CNC1=O)C2 | -5% |
| CCOC(=O)c1cnc(SCC(=O)Nc2ccc(NC(C)=O)c(OC)c2)nc1N | -9% |
| CCOc1ccc(/C=N/NC(=O)C(C)Sc2ccccn2)cc1OCC (stereo unspecified) | -18% |
| COc1ccc(Cn2nnnc2C(c2cc(OC)ccc2OC)N2CCC(C(N)=O)CC2)cc1 (stereo unspecified) | -5% |
| Cc1ccn2c(NC(=O)c3ccccc3)c(-c3cccs3)nc2c1 | -4% |
| COc1ccccc1-c1c(C)oc2c(CN3CCN(C)CC3)c(O)ccc2c1=O | u |
| O=C(NCC1CCCO1)C1CC1(c1ccccc1)c1ccccc1 (stereo unspecified) | -2% |
| COc1cccc(NC(=O)CN2CCN(S(=O)(=O)c3ccc(C(C)C)cc3)CC2)c1 | -15% |
| C/C(=N\NC(=O)CCCOc1ccc(Cl)cc1C)c1ccc(C)o1 | -15% |
| COc1ccc(Cl)cc1NC(=O)Nn1cnnc1 | -2% |
| COc1ccc([C@H](O)c2ccccn2)cc1 | -2% |
| Cc1nn(S(=O)(=O)c2cccs2)c(C)c1Sc1ccccc1 | -17% |
| CCOc1ccc2c(c1)c(N=O)c(O)n2C | -14% |
| O=C(NC1CCCC1)C(c1cccs1)N(Cc1ccco1)C(=O)Cn1nnc(-c2cccs2)n1 (stereo unspecified) | -10% |
| CCC[C@H]1C(=O)N2C(N(C)C)=Nc3ccc(C)cc3N2C1=O | 1% |
| O=C1C=C(Nc2ccccc2O)c2ccccc2C1=O | u |
| CCOC(=O)c1c(COC(=O)c2ccco2)nc2ccccc2[n+]1[O-] | 5% |
| COc1ccc(C(=O)/C=C/c2ccc(OC3CSC3)cc2)cc1OC | 14µM* |

Overlap with the part before: 2 compounds, then new ones.
| canonical_smiles | HPGD inh |
| --- | --- |
| CCOC(=O)c1c(COC(=O)c2ccco2)nc2ccccc2[n+]1[O-] | 5% |
| COc1ccc(C(=O)/C=C/c2ccc(OC3CSC3)cc2)cc1OC | 14µM* |
| O=C(NCC1CCCO1)c1ccccc1-c1nc(-c2ccc(F)cc2)no1 (stereo unspecified) | -12% |
| CC1CCc2c(sc(NC(=O)c3ccc(-c4ccccc4[N+](=O)[O-])o3)c2C#N)C1 (stereo unspecified) | -25% |
| CCCCC(=O)OCc1nc(N)nc(Nc2ccccc2C)n1 | -26% |
| O=C(CC1c2ccccc2Oc2ccccc21)N1CCN(c2ccccn2)CC1 | u |
| O=c1[nH]nc(Cc2ccc(Cl)cc2)c2ccccc12 | -12% |
| O=C1Nc2cc3c(cc2Sc2ccccc21)OCCO3 | -27% |
| S=C(NCCCc1cnc[nH]1)NCCCN(Cc1ccc(Cl)c(Cl)c1)c1ccc(Br)cn1 | -8% |
| NC(=O)C1CCN(C(=O)COc2ccc(S(=O)(=O)NCc3ccccc3)cc2Cl)CC1 | -13% |
| Cc1c(OC(=O)CNC(=O)OC(C)(C)C)ccc2c3c(c(=O)oc12)CCC3 | u |
| Cc1ccccc1-n1c(=O)cc(NCC2CCCO2)[nH]c1=O (stereo unspecified) | -24% |
| COc1ccc2c(c1OC)C(=O)N(c1ncn[nH]1)C2 | u |
| O=C(/C=C/c1cccc(Cl)c1)Nn1c(-c2cccs2)nc2ccccc2c1=O | -11% |
| COc1cccc(-c2nc(CS(=O)(=O)CC(=O)Nc3cc(C)ccc3C)c(C)o2)c1 | -13% |
| CC1=NC(=O)C(N=Nc2cccc(C(=O)O)c2)N1c1ccccc1 (stereo unspecified) | -5% |
| Cc1cc(/C=C(/C#N)C(=O)Nc2ccccc2)c(C)n1-c1cccnc1 | 44%[activator] |
| CCOc1ccc(NC(=O)c2ccccc2CO)cc1 | -6% |
| CCOc1ccc(C(=O)NCCc2ccccc2)cc1 | -20% |
| Brc1ccc(OCCn2ccnc2)cc1 | -6% |
| COc1ccc2ccccc2c1CN1CCN(C(=O)c2ccccc2)CC1 | u |
| COc1ccc(NC(=O)NCc2ccccn2)cc1 | -2% |
| CCOc1ccc(NC(=O)CSc2nnnn2CC(=O)O)cc1 | -10% |
| Cc1c(/C(O)=C2/C(=O)C(=O)N(CCN3CCOCC3)C2c2cccs2)cnn1-c1ccccc1 (stereo unspecified) | -6% |
| CC(C)NC(=O)CN(CCc1ccccc1)S(C)(=O)=O | -20% |
| COc1ccc(-c2cccc(C(=O)NCC(=O)O)c2)cc1 | u |
| COc1ccc(-c2cc(-c3nnc(-c4ccncc4)o3)c3ccccc3n2)cc1 | u |
| CC(=O)NC1C(O)C[C@@](O)(C(=O)O)OC1[C@@H](O)C(O)CO (stereo partly specified) | 2% |
| Clc1cccc(CSc2nnc(-c3ccccn3)n2Cc2ccco2)c1 | -18% |
| CCCOc1ccc(C2C(C(=O)c3ccc(C)o3)=C(O)C(=O)N2Cc2cccnc2)cc1 (stereo unspecified) | -14% |
| C=CCN(c1ccccc1Cl)S(=O)(=O)c1cccc(C(=O)NCCc2ccc(OC)cc2)c1 | -16% |
| Cc1ccc(P(=O)(CC(=O)O)c2ccc(C)cc2)cc1 | 5% |
| COc1ccccc1OCCSc1nnnn1-c1ccc(C)cc1 | -14% |
| COc1ccc(/C=N/NC(=O)CO/N=C(\C)c2cccs2)cc1 | -20% |
